2A firefly: FMDV 2A StopGo reporter, firefly signal | 0.23% of 120,000 active | HEK cells with a luciferase reporter of 2A StopGo recoding | Potency, µM (top dose mostly 57.5 µM), for the others: top-dose signal change, negative = less light; active = well fitted falling curve with a large enough effect; inconclusive = small, poorly fitted or top-dose-only effect; inactive = no such curve, though single readings can be large or run the other way; also: nearly all actives have a fitted effect of over 60% in size; overnight with compound
StopGo RLuc: lowers the Renilla signal of an FMDV 2A StopGo reporter; 0.32% of 120,000 active; Potency, µM (top dose mostly 57.5 µM), without a hit: top-dose signal change, negative = less light; HEK cells with a luciferase reporter of 2A StopGo recoding; active means well fitted falling curve with a large enough effect; inconclusive means small, poorly fitted or top-dose-only effect; inactive means no such curve, though single readings can be large or run the other way; also: nearly all actives have a fitted effect of over 55% in size; overnight with compound
Numbers without * were called inactive; u = inconclusive; [ ] = another dose, or the depositor's remark. % is scaled to controls: 0 for no effect and ±100 for the full control effect; potency is read from the fitted curve at half-maximal effect. Only part of the results is shown; count on the stated rates, not on these rows.

Below each SMILES – StopGo RLuc, 2A firefly
- CCOC(=O)c1c(NC(=O)CCCC(=O)O)sc2c1CCC2
  5%, -3%
- O=C(CC1N=C2c3ccccc3N=C(SCC(=O)Nc3cccc(Cl)c3)N2C1=O)NCc1cccs1 (stereo not given)
  9%, 9%
- CN(CC(=O)NC(C)(C)C)C(=O)c1ccsc1
  -1%, -2%
- Fc1ccc(-c2ccc(CNCc3cccnc3-n3cccn3)o2)cc1
  -1%, 16%
- Cc1ccc(NS(=O)(=O)c2cc(C)c(C(=O)O)s2)cc1C(F)(F)F
  159%[activator], 5%
- COC(=O)[C@H](C(C)C)N(Cc1cn(Cc2ccc(C)cc2)nn1)S(=O)(=O)c1ccccc1Br
  111%[activator], -10%
- CCOC(=O)C1CCC(CN(Cc2ccc(OC)cc2)S(=O)(=O)c2ccc(C)cc2)CC1 (stereo not given)
  26%, -3%
- COc1ccccc1C1C(C(=O)OCc2ccccc2)=C(C)NC2=C1C(=O)CCC2 (stereo not given)
  12%, 2%
- COC(=O)c1ccc(CNC(=O)c2cccc(F)c2)cc1
  51%[activator], 116%[activator]
- CN(C(=O)CCl)C1CCCCC1
  -21%[1.06 µM], 9%
- COCCn1c(SCC(=O)c2ccccc2)nc2cc(C(=O)NC3CCCC3)ccc2c1=O
  -9%, -13%
- CCCNc1c(NC(=O)Nc2cccc(OC)c2)c(=O)oc2ccccc12
  -2%, -5%
- Cc1cccc(N(Cc2ccccc2)C(=O)c2ccccn2)c1
  10%, 0%
- CC(=O)C(=Cc1cc(C)n(CC(F)(F)F)c1C)C(C)=O
  50%[activator], 0%
- COc1ccc(C(NC(=O)Cc2ccccc2)c2nccc3cc(OC)c(OC)cc23)cc1OC (stereo not given)
  32%[activator], 25%
- COc1cc2c(C(=O)N3CCN(c4cccc(C)c4)C(C)C3)cn(CC(C)C)c(=O)c2cc1OC (stereo not given)
  2%, -29%
- COc1ccc2nc(C)cc(Nc3ccc(Cl)cc3)c2c1
  -9%, 14%
- COC(=O)c1ccc2c(=O)[nH]c(CSc3nnc(-c4cccc(C)c4)n3Cc3ccco3)nc2c1
  5%, 13%
- Cc1cc2oc(C(=O)Nc3sc4c(c3C(=O)NCc3ccco3)CCC4)cc(=O)c2cc1C
  -4%, -16%
- CCN(c1ccccc1)S(=O)(=O)c1ccc2[nH]cc(C(=O)NC3CCCCC3)c(=O)c2c1
  -7%, -28%
- O=C(CSCc1nc2ccccc2c(=O)[nH]1)Nc1ccc(O)cc1
  3%, 19%
- COc1ccc2oc(=O)c(-c3csc(-c4ccc(Br)cc4)n3)cc2c1
  1%, 4%
- CCc1ccc(-c2nc(CSCC(=O)NCc3ccccc3OC)c(C)o2)cc1
  -7%, -37%
- CCCCn1c(C)c(C)c2c1ncn1nc(-c3cccs3)nc21
  0%, 129%[activator]
- Cc1c[nH]cc1C(=O)OCC#Cc1ccccc1
  60%[activator], 92%[activator]
- COc1ccccc1CNC(=O)c1cnc(SC)nc1C
  0%, -5%
- COc1ccc(-c2nnc(SCc3cc(=O)c4cc(C)cc(C)c4[nH]3)n2C)cc1
  4µM*, u
- O=[N+]([O-])c1ccc(/C=N/Nc2cccc(Cl)c2)cc1
  -14%, 149%[activator]
- O=C(NC1CCCCC1)c1cccc2ncccc12
  -15%, -7%
- CC(C)(C)C(=O)Nc1c(C(=O)N2CCN(c3ccc(F)cc3)CC2)oc2ccccc12
  75%[activator], -5%
- O=C(/C=C/c1ccc[nH]1)c1ccc(I)cc1
  11%, 148%[activator]
- CCOc1ccc(NC(=O)NCc2c(-n3cccc3)sc3c2CCCC3)cc1
  -9%, -3%
- Cc1cc(OCCCSc2nc(-c3ccc(C(C)(C)C)cc3)nc3cc(=O)[nH]n23)ccc1Cl
  2%, -16%
- Cc1ccc(NC(=O)c2ncn(-c3ccccc3)n2)cc1Cl
  -20%, 120%[activator]
- CNC(=O)CCc1ccc(C)cc1
  6%, -1%
- CCN(CC)CCOc1ccc(NC(=O)c2nn(C)c(=O)c3ccccc23)cc1
  13%, 24%
- COc1ccc(-c2nc3c(C#N)c[nH]n3c2NC2CCCCC2)c(OC)c1
  24%, -7%
- Cc1ccc(C(=O)O)cc1S(=O)(=O)NCCO
  7%, 12%
- COCc1ccc(CNC(=O)c2cccc(C#N)c2)cc1
  24%, 3%
- Cc1cc(=O)oc2cc(OC(C)C(=O)O)c(Cl)cc12 (stereo not given)
  -3%, -3%
- COc1ccc(C(=O)Oc2ccc(Cl)cc2C)cc1OC
  -8%[1.06 µM], 10%
- COc1ccc(-c2nc3c(s2)CN(C(C(=O)O)c2c[nH]c4cc(Br)ccc24)CC3)cc1 (stereo not given)
  -4%, -11%
- CCC(Oc1ccccc1F)C(=O)Nc1c(C)cccc1C (stereo not given)
  -10%, -13%
- CCn1c(C(=O)NCCc2ccc(OC)c(OC)c2)cc2sc(Cl)cc21
  -2%, u
- CCC(Oc1ccccc1F)C(=O)Nc1cc(-c2ccccc2)no1 (stereo not given)
  10%, 18%
- O=C(NCCc1nnc2n1CCCCC2)Nc1ccccc1
  -2%, 3%
- COc1ccc(OC)c(S(=O)(=O)N2CCN(Cc3nc4ccc(C)cc4o3)CC2)c1
  39%[activator], 0%
- CC1=C(C(=O)Nc2ccc(C(=O)NCCC(C)C)c(Cl)c2)SCCO1
  16%, 0%
- O=C(Oc1ccc(Cl)cc1)c1ccc2ncsc2c1
  13%, u
- CCSc1ncc(Cl)c(C(=O)Nc2nnc(C(C)C)s2)n1
  -10%, -5%
- COc1cc(/C=C(/C#N)C(=O)C(C)C)cc(Cl)c1O
  12%, 0%
- COc1cccc2cc(-c3cn4ccccc4n3)c(=O)oc12
  11%, 48%[activator]
- CCCCCn1nc(C(=O)N2CCC(C)Sc3ccccc32)c2ccccc2c1=O (stereo not given)
  -5%, -45%
- Cc1nnc(CN2CCC(c3nc4ccccc4s3)CC2)o1
  8%, 44%[activator]
- O=C(NCC(c1ccccc1)c1c[nH]c2ccccc12)c1cc[n+]([O-])cc1 (stereo not given)
  18%, 10%
- O=C(CSc1nnc(N2CCCC2)n1-c1cccc(Cl)c1)Nc1ccc2c(c1)OCCCO2
  47%[activator], 0%
- COc1ccc(/C=C/C(=O)Oc2ccc(Cl)cc2Cl)cc1
  6%, 33%[activator]
- CCOc1ccc(-c2cc(CCCC(=O)NCCc3ccc(OC)c(OC)c3)no2)cc1
  23%, u
- Cc1ccc(SCc2nc(-c3ccc(C(=O)NCc4ccc(Cl)cc4)cc3)oc2C)cc1
  -3%, -2%
- CCOC(=O)c1c(-c2ccc(C)cc2C)csc1NC(=O)c1ccccc1Cl
  10%, -2%

Next results:
Below each SMILES – StopGo RLuc, 2A firefly
- CCNC(=S)NNC(=O)C1CC1
  -3%, -10%
- CCOc1ccc(NS(=O)(=O)c2c(C)nc3sc(CC)nn3c2=O)cc1
  5%, -3%
- COc1ccccc1N(C)C(=O)Cn1c(=O)oc2cc(S(=O)(=O)N3CCCC3)ccc21
  14%, -2%
- CCOC(=O)c1c(C)[nH]c(C=O)c1C
  -10%[1.06 µM], 46%[activator]
- Cc1ccc(C)c(NC(NC(=O)C(C)C)C(Cl)(Cl)Cl)c1 (stereo not given)
  14%, 0%
- CCN(CC)S(=O)(=O)c1ccc(C(=O)N2CC(=O)Nc3ccc(F)cc3C2c2ccccc2)cc1 (stereo not given)
  71%[activator], 14%
- O=C(Nc1ccc2oc(-c3ccccc3F)nc2c1)c1ccc(Cl)cc1
  u, -6%
- Cc1cccc(-n2c(SCC(=O)N(C)CCC#N)nc3ccccc3c2=O)n1
  -1%, 79%[activator]
- O=C(CCc1ncc(-c2ccccc2)o1)Nc1cc(F)cc(F)c1
  -18%, u
- NCCCC[C@H](N[C@@H](CCc1ccccc1)C(=O)O)C(=O)N1CCC[C@H]1C(=O)O
  -9%, -8%[11.5 µM]
- O=c1cc(CN2CCN(S(=O)(=O)c3ccccc3)CC2)c2cc(Cl)c(O)cc2o1
  20%, 19%
- Cc1ccc(C)n1-c1nnc(N2CCCC(C(=O)Nc3ccccc3Br)C2)s1 (stereo not given)
  6%, 0%
- Cc1cccc(C)c1NC(=O)Nc1sc2nc3n(c(=O)c2c1C)CCC(C)CC3 (stereo not given)
  6%, 13%
- N#Cc1cccc(C(=O)NC2CCSc3ccccc32)c1 (stereo not given)
  50%[activator], u
- COC(=O)c1c(C)[nH]c(-c2cc(OC)c(OC)c(OC)c2)c1C1C(=O)Nc2ccc(F)cc21 (stereo not given)
  61%[activator], 69%[activator]
- CCc1ccc(NCc2cc3cc4c(cc3n(CC(=O)Nc3ccc(C)cc3)c2=O)OCO4)cc1
  0%, 6%
- COc1cc(OC)c(N(C)C(=O)c2cn(C)c(=O)c3cc(OC)c(OC)cc23)cc1Cl
  14%, 10%
- COc1cc(NC(=O)C2CCCN2C(=O)C23CC4CC(CC(C4)C2)C3)cc(OC)c1OC (stereo not given)
  -11%, -6%
- CCC12CN3CC(CC)(CN(C1)C3c1ccc(C)cc1)C2=O (stereo not given)
  -4%, 16%
- CC(C)CNC(=O)c1ccccc1N
  -2%, 0%

Ordered by SMILES length (lowest first): part of the list above.
Below each SMILES – StopGo RLuc, 2A firefly
- CCNC(=S)NNC(=O)C1CC1
  -3%, -10%
- CC(C)CNC(=O)c1ccccc1N
  -2%, 0%
- CCOC(=O)c1c(C)[nH]c(C=O)c1C
  -10%[1.06 µM], 46%[activator]
- N#Cc1cccc(C(=O)NC2CCSc3ccccc32)c1 (stereo not given)
  50%[activator], u
- Cc1nnc(CN2CCC(c3nc4ccccc4s3)CC2)o1
  8%, 44%[activator]
- COc1ccc(/C=C/C(=O)Oc2ccc(Cl)cc2Cl)cc1
  6%, 33%[activator]
- CCC12CN3CC(CC)(CN(C1)C3c1ccc(C)cc1)C2=O (stereo not given)
  -4%, 16%
- Cc1ccc(C)c(NC(NC(=O)C(C)C)C(Cl)(Cl)Cl)c1 (stereo not given)
  14%, 0%
- O=C(Nc1ccc2oc(-c3ccccc3F)nc2c1)c1ccc(Cl)cc1
  u, -6%
- CCOc1ccc(NS(=O)(=O)c2c(C)nc3sc(CC)nn3c2=O)cc1
  5%, -3%
- CCOC(=O)c1c(-c2ccc(C)cc2C)csc1NC(=O)c1ccccc1Cl
  10%, -2%
- Cc1ccc(C)n1-c1nnc(N2CCCC(C(=O)Nc3ccccc3Br)C2)s1 (stereo not given)
  6%, 0%
- Cc1cccc(C)c1NC(=O)Nc1sc2nc3n(c(=O)c2c1C)CCC(C)CC3 (stereo not given)
  6%, 13%
- CCOc1ccc(-c2cc(CCCC(=O)NCCc3ccc(OC)c(OC)c3)no2)cc1
  23%, u
- O=C(NCC(c1ccccc1)c1c[nH]c2ccccc12)c1cc[n+]([O-])cc1 (stereo not given)
  18%, 10%
- Cc1ccc(SCc2nc(-c3ccc(C(=O)NCc4ccc(Cl)cc4)cc3)oc2C)cc1
  -3%, -2%
- O=C(CSc1nnc(N2CCCC2)n1-c1cccc(Cl)c1)Nc1ccc2c(c1)OCCCO2
  47%[activator], 0%
- COc1ccccc1N(C)C(=O)Cn1c(=O)oc2cc(S(=O)(=O)N3CCCC3)ccc21
  14%, -2%
- COc1cc(OC)c(N(C)C(=O)c2cn(C)c(=O)c3cc(OC)c(OC)cc23)cc1Cl
  14%, 10%
- CCc1ccc(NCc2cc3cc4c(cc3n(CC(=O)Nc3ccc(C)cc3)c2=O)OCO4)cc1
  0%, 6%
- NCCCC[C@H](N[C@@H](CCc1ccccc1)C(=O)O)C(=O)N1CCC[C@H]1C(=O)O
  -9%, -8%[11.5 µM]
- CCN(CC)S(=O)(=O)c1ccc(C(=O)N2CC(=O)Nc3ccc(F)cc3C2c2ccccc2)cc1 (stereo not given)
  71%[activator], 14%
- COC(=O)c1c(C)[nH]c(-c2cc(OC)c(OC)c(OC)c2)c1C1C(=O)Nc2ccc(F)cc21 (stereo not given)
  61%[activator], 69%[activator]

Next section
Below each SMILES – StopGo RLuc, 2A firefly
- CC(NC(=O)N1CCC(NS(=O)(=O)c2cccs2)CC1)c1ccc(F)cc1F (stereo not given)
  6%, 6%
- N#Cc1ccc(Cn2cnc3c(Cl)cc(Cl)cc3c2=O)cc1
  9%, 10%
- CSc1ccc(CN2CCN(C/C=C/c3ccccc3)CC2)cc1
  u, u
- CC(Oc1ccc2ccc(=O)oc2c1)C(=O)N1CCc2ccccc21 (stereo not given)
  20%, u
- CCC(CC)C(CNC(=O)c1n[nH]c(=O)c2ccccc12)N1CCOCC1 (stereo not given)
  -15%, -15%
- Cc1ccccc1NC(=O)N1CCC(CN2CCCC2)CC1
  -4%, -15%
- COc1ccc(CNc2oc(-c3ccc(COc4ccc(OC)cc4)o3)nc2C#N)cc1
  -15%, 10%
- CCOC(=O)c1cnn(-c2nc(CC)nc3sc4c(c23)CCC4)c1N
  3%, 5%
- CC(C)CNC(=O)CSc1ccc2ccccc2n1
  29%, 64%[activator]

From PubChem BioAssay
